Screens from PubChem.
DUX4 inh: DUX4-mediated transcription inhibition. 293T-iDUX4 ZSCAN4-Gaussia luciferase reporter, 24 h; stronger effect = lower value. activity change, negative = inhibition, % (no concentration beside the values). 37,000 compounds, 0.8% hits. AID 1224904;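 active means -10% or lower and over 25 points stronger than a control reporter; inconclusive means -10% or lower with a smaller gap; inactive means above -10%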;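 further: 0% = median of neutral control wells and -100% = median of positive control wells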
DUX4 inh difference: further read-out of DUX4 inh, marked with its call; Gaussia minus Italica difference, %; measured here: selective DUX4 reporter inhibition;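 worked out from the two reporters; negative = selective loss of the DUX4 reporter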
DUX4 inh control: second read-out of DUX4 inh, no call of its own (marks repeat the call); activity change, negative = inhibition, %; measured here: Italica tet-on control reporter;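 0 = neutral control and -100 = positive control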
The depositor's hits bear a star; ? = inconclusive; nt = not tested or not shown; & = joins results of further samples. The list is partial; the hit share may differ from the screen's.

Every second line gives: DUX4 inh	DUX4 inh difference	DUX4 inh control
CN1C(=O)c2cc(NC(=O)c3ccc(F)c(F)c3)ccc2OC[C@H]2O[C@H](CC(=O)N3CCCCC3)CC[C@H]21
 : 2	1	0.8
CO[C@H]1CN(C)C(=O)c2cc(NC(=O)NC(C)C)ccc2OC[C@H](C)N(C(=O)CN(C)C)C[C@@H]1C
 : 3	-2	4.7
CCC(=O)N1CC2(C1)CN(C(=O)NC1CCCC1)[C@@H](CO)c1c2c2ccc(OC)cc2n1C
 : 5	1	3.5
Cc1ccccc1S(=O)(=O)N1CCCCN2[C@@H](CO)[C@H](c3ccc(-c4cccnc4)cc3)[C@@H]2C1
 : ?	nt	nt
CC(=O)N1CC2(C1)[C@H](c1ccccc1)[C@@H](CO)N2Cc1ccccc1
 : 9	4	5.6
CC=Cc1ccc2n(c1=O)C[C@@H]1[C@@H](CO)[C@H](C(=O)NCc3ccncn3)N(C(=O)NC3CCCC3)[C@H]21 (mixture of isomers)
 : 2	-1	2.3
COc1ccc2c3c(n(C)c2c1)[C@H](CO)N(Cc1nccs1)CC31CN(C(C)=O)C1
 : 27	19	7.7
COc1ccc2c3c(n(C)c2c1)[C@@H](CO)N(S(C)(=O)=O)CC31CN(C(=O)c2ccccn2)C1
 : -6	-1	-5.8
COCCNC(=O)C[C@H]1CC[C@@H]2[C@@H](COc3ccc(NC(=O)c4cnccn4)cc3C(=O)N2C)O1
 : -2	-4	2.8
CN(C)C(=O)[C@@H]1[C@@H](CO)[C@@H]2Cn3c(cccc3=O)[C@H]1N2C(=O)c1ccccc1
 : -3	-7	4.1
N#C[C@H]1[C@H](c2ccc(C#Cc3ccccc3F)cc2)[C@@H](CO)N1C(=O)C1CCC1
 : 0	-3	2.4
C[C@H]1CN([C@@H](C)CO)C(=O)CCCn2cc(nn2)CO[C@H]1CN(C)Cc1ccccc1
 : -8	-15	7.2
COc1cccc(S(=O)(=O)N2CCCCN3[C@H](CO)[C@H](c4ccc(C#CC5CC5)cc4)[C@H]3C2)c1
 : ?	nt	nt
C[C@@H]1CN([C@@H](C)CO)C(=O)c2cc(NC(=O)Nc3ccc(C(F)(F)F)cc3)ccc2O[C@@H](C)CCCCO[C@H]1CN(C)C(=O)Cc1ccccc1
 : 2	-2	3.7
COc1ccccc1NC(=O)N[C@@H]1CC[C@@H](CCNS(=O)(=O)c2ccc(Cl)cc2)O[C@H]1CO
 : 1	1	-0.1

Structural class, the entries above with fluorine
Every second line gives: DUX4 inh	DUX4 inh difference	DUX4 inh control
CN1C(=O)c2cc(NC(=O)c3ccc(F)c(F)c3)ccc2OC[C@H]2O[C@H](CC(=O)N3CCCCC3)CC[C@H]21
 : 2	1	0.8
N#C[C@H]1[C@H](c2ccc(C#Cc3ccccc3F)cc2)[C@@H](CO)N1C(=O)C1CCC1
 : 0	-3	2.4
C[C@@H]1CN([C@@H](C)CO)C(=O)c2cc(NC(=O)Nc3ccc(C(F)(F)F)cc3)ccc2O[C@@H](C)CCCCO[C@H]1CN(C)C(=O)Cc1ccccc1
 : 2	-2	3.7

The list continues:
Every second line gives: DUX4 inh	DUX4 inh difference	DUX4 inh control
COc1ccc2c3c(n(C)c2c1)[C@@H](CO)NCC31CCN(C(=O)CC2CC2)CC1
 : 12	15	-2.5
C/C=C/c1ccc2c(c1)O[C@@H](CN(C)C(=O)NCCC)[C@H](C)CN([C@@H](C)CO)S2(=O)=O
 : -1	1	-1.8
O=C(C[C@@H]1CC[C@H]2[C@@H](COC[C@H](O)CN2C(=O)C2CC2)O1)NCc1ccccc1Cl
 : 1	-7	7.6
COc1cccc(-c2ccc3n(c2=O)C[C@H]2[C@H](CO)[C@@H](C(=O)NCC4CC4)[C@@H]3N2S(C)(=O)=O)c1
 : -3	-6	3.5
O=C(C[C@@H]1C[C@@H]2c3cc(NC(=O)c4ccc5c(c4)OCO5)ccc3O[C@@H]2[C@@H](CO)O1)NCc1ccc(Oc2ccccc2)cc1
 : ?	nt	nt
CO[C@@H](CN(C)C(=O)c1ccc2c(c1)OCO2)[C@@H](C)CN([C@H](C)CO)S(=O)(=O)c1ccc(C)cc1
 : -4	-1	-3.3
CCCNC(=O)N1[C@H](C(=O)NC2CCC2)[C@@H](CO)[C@@H]2Cn3c(ccc(-c4ccccc4OC)c3=O)[C@@H]21
 : 3	-1	3.6
C[C@H](NC(=O)C[C@@H]1C[C@H]2c3cc(NS(C)(=O)=O)ccc3O[C@H]2[C@@H](CO)O1)c1ccccc1
 : 5	-1	6.4
Cc1ccc(S(=O)(=O)N2C[C@H](O)COC[C@@H]3O[C@H](CC(=O)NCc4ccc(Cl)c(Cl)c4)CC[C@H]32)cc1
 : ?	nt	nt
CNC[C@@H]1OCc2cnnn2CCCC(=O)N([C@@H](C)CO)C[C@@H]1C
 : 6	6	0.6
O=C(c1ccc2c(c1)OCO2)N1C[C@@H]2N[C@H](C1)C2c1ccc(-c2cccnc2)cc1 (stereo partly specified)
 : ?	-7	18
O=C(C[C@H]1C[C@@H]2c3cc(NC(=O)Nc4ccccc4F)ccc3O[C@@H]2[C@H](CO)O1)NCC(F)(F)F
 : 8	9	-1.8
CCC(=O)N1CC2(CN(C(=O)Nc3ccc(F)cc3)C2)c2c([nH]c3cc(OC)ccc23)[C@H]1CO
 : 16	1	15
CC(C)CC#Cc1ccc2c(c1)O[C@H](CN(C)C(=O)Cc1ccncc1)[C@@H](C)CN([C@@H](C)CO)S2(=O)=O
 : 6	6	0.4
C/C=C/c1ccc2c(c1)O[C@@H](CN(C)C(=O)C1CCCCC1)[C@@H](C)CN([C@H](C)CO)S2(=O)=O
 : -5	3	-7.4

The results go on:
compound	DUX4 inh	DUX4 inh difference	DUX4 inh control
C[C@H]1CCCCO[C@H](CN(C)Cc2ccc(C(F)(F)F)cc2)[C@@H](C)CN([C@@H](C)CO)C(=O)c2cc(NC(=O)c3ccccc3)ccc2O1	2	-2	3.3
O=C1CN(Cc2ccccc2)C[C@H]2[C@@H](c3ccc(Br)cc3)[C@H](CO)N12	2	-7	9.1
C[C@@H]1CN([C@@H](C)CO)S(=O)(=O)c2ccc(-c3cccnc3)cc2O[C@@H]1CN(C)C(=O)CC1CC1	0	0	-0.2
COc1ccccc1-c1cnc2c(c1)C(=O)N([C@H](C)CO)C[C@@H](C)[C@H](CN(C)Cc1cncnc1)O2	1	3	-2.0
CNC(=O)C[C@@H]1CC[C@H]2[C@H](COc3ccc(NC(=O)c4cccc(OC)c4)cc3C(=O)N2C)O1	-3	-4	0.0
COc1ccc(NC(=O)N2C[C@@H](O)COC[C@@H]3O[C@H](CC(=O)NCc4ccccc4OC)CC[C@H]32)cc1	11	11	0.1
CO[C@H]1CN(C)C(=O)c2ccc(NC(=O)C3CCOCC3)cc2OC[C@H](C)N(Cc2cccnc2)C[C@H]1C	1	1	0.0
Cc1noc(C)c1S(=O)(=O)Nc1ccc2c(c1)C(=O)N([C@@H](C)CO)C[C@H](C)[C@H](CN(C)S(=O)(=O)c1ccc(F)cc1)OCCCC[C@H](C)O2	-4	-1	-3.6
COc1cccc(S(=O)(=O)N2C[C@@H](O)COC[C@@H]3O[C@H](CC(=O)N4CCCCC4)CC[C@H]32)c1	-5	1	-5.2
N#C[C@H]1[C@H](c2ccccc2-c2cccc(F)c2)[C@@H](CO)N1C(=O)NC1CCCCC1	?	nt	nt
COc1ccc(C#Cc2ccc3c(c2)[C@@H]2[C@@H](CCN2C(=O)c2ccccc2F)[C@@H](CO)N3)cc1	11	3	7.8
C[C@H](NC(=O)C[C@@H]1CC[C@@H]2[C@H](COc3ccc(NC(=O)C4CCOCC4)cc3C(=O)N2C)O1)c1ccccc1	1	0	0.2
Cc1ccc(-c2ccccc2[C@@H]2[C@@H](CO)N(C(=O)NC3CCCC3)[C@H]2C#N)cc1	?	nt	nt
CC(=O)N1[C@@H](CO)[C@@H](c2ccccc2)C12CN(C(=O)c1ccc3c(c1)OCO3)C2	-1	-2	1.6
O=C(C[C@H]1C[C@@H]2c3cc(NC(=O)C4CCC4)ccc3O[C@@H]2[C@H](CO)O1)NCc1ccccc1F	8	-3	11
CCCNC(=O)N[C@H]1C=C[C@@H](CC(=O)NCCc2ccccc2)O[C@H]1CO	2	4	-1.3
CN1CCCCN2[C@H](CO)[C@@H](c3ccc(/C=C/c4ccccc4)cc3)[C@H]2C1	6	16	-9.4
CN1c2ccc(-c3ccc(F)cc3)cc2[C@@H]2[C@@H](CCN2C(=O)c2ccncc2)[C@H]1CO	9	13	-4.1
COc1ccccc1-c1ccc2c(c1)[C@@H]1[C@@H](CCN1C(=O)C1CCC1)[C@H](CO)N2	?	nt	nt
COCC(=O)NC[C@@H]1[C@H](c2ccc(C3=CCCC3)cc2)[C@H](CO)N1C(=O)C1CC1	0	3	-2.7
O=C(NCC1CCCCC1)[C@@H]1[C@@H](CO)[C@@H]2Cn3c(cccc3=O)[C@H]1N2C(=O)c1cccnc1	5	3	1.8
O=C(C[C@H]1CC[C@@H]2[C@H](COC[C@@H](O)CN2C(=O)c2ccncc2)O1)NC1CCC1	4	4	-0.3
COc1ccc2c3c(n(C)c2c1)[C@@H](CO)N(S(C)(=O)=O)CC31CCN(C(=O)CN(C)C)CC1	16	6	9.7
CCCNC(=O)N(C)C[C@H]1Oc2cc(C3=CCCC3)ccc2S(=O)(=O)N([C@@H](C)CO)C[C@@H]1C	-2	1	-2.5
O=C(C1CCOCC1)N1[C@H](CO)[C@@H](c2ccccc2)C12CN(Cc1cccnc1)C2	-3	-3	0.0
CNC[C@H]1Oc2c(NC(=O)NC3CCCCC3)cccc2C(=O)N([C@@H](C)CO)C[C@@H]1C	2	1	1.0
CC(C)NC(=O)N(C)C[C@@H]1Oc2ccc(NS(=O)(=O)c3ccc(F)cc3)cc2CC(=O)N([C@H](C)CO)C[C@@H]1C	1	0	1.0
Cc1noc(C)c1S(=O)(=O)Nc1ccc2c(c1)CC(=O)N([C@H](C)CO)C[C@H](C)[C@@H](CN(C)Cc1ccc(Oc3ccccc3)cc1)O2	0	0	0.3
C[C@H](CO)N1C[C@H](C)[C@H](CN(C)Cc2ccc3c(c2)OCCN3C)OCc2ccccc2-c2ccccc2C1=O	-1	-5	4.9
COc1ccc(S(=O)(=O)Nc2ccc3c(c2)C(=O)N([C@H](C)CO)C[C@H](C)[C@H](CN(C)S(=O)(=O)c2ccc(Cl)cc2)OCCCC[C@H](C)O3)cc1	-2	2	-4.6
Cc1ccc(S(=O)(=O)Nc2cccc3c2O[C@@H](CN(C)C(=O)Nc2ccc(C(F)(F)F)cc2)[C@H](C)CN([C@H](C)CO)C3=O)cc1	-3	5	-7.6
CCCNC(=O)C[C@H]1C[C@@H]2c3cc(NC(=O)C4CCOCC4)ccc3O[C@@H]2[C@H](CO)O1	5	1	4.0
C[C@H]1CN([C@@H](C)CO)S(=O)(=O)c2ccc(C#Cc3ccccn3)cc2O[C@@H]1CN(C)Cc1cccc(F)c1	-1	-4	3.6
CN1C[C@H]2[C@@H](c3ccccc31)[C@H](CO)N2S(=O)(=O)c1ccccc1	0	2	-2.3
N#C[C@@H]1[C@@H](c2ccccc2-c2ccc(F)cc2)[C@H](CO)N1C(=O)Cc1ccccc1	-5	1	-5.6
CN1C(=O)c2cc(NC(=O)c3cccc(F)c3)ccc2OC[C@H]2O[C@H](CC(=O)NCC3CCCCC3)CC[C@@H]21	3&-4	4&-5	-0.4&0.8
O=C1N[C@@H](c2ccccc2)COCn2nncc2CC[C@@H]1Cc1ccccc1	0	-1	1.4
O=C(C[C@H]1CC[C@@H]2[C@H](COC[C@H](O)CN2C(=O)c2ccncc2)O1)NCc1cc(F)cc(F)c1	1	-5	6.3
Cc1ccc(S(=O)(=O)N2C[C@H](O)COC[C@@H]3O[C@@H](CC(=O)NCC4CCCCC4)CC[C@H]32)cc1	-5	-8	2.7
COC(=O)C[C@@H]1CC[C@H]2[C@@H](COC[C@@H](O)CN2S(=O)(=O)c2cn(C)cn2)O1	7	3	4.6
N#C[C@H]1[C@@H](c2ccc(/C=C/c3ccccc3)cc2)[C@@H](CO)N1C(=O)Cc1ccccn1	-2	-5	2.8
COc1ccc(NC(=O)N(C)C[C@H]2OCCCC[C@H](C)Oc3ccc(NC(=O)CCCN(C)C)cc3C(=O)N([C@H](C)CO)C[C@@H]2C)cc1	3	2	0.9
C[C@H](O)C#Cc1ccc([C@@H]2[C@@H](CO)N3CCCCN(S(=O)(=O)Cc4ccccc4)C[C@@H]23)cc1	?	nt	nt
CCC(=O)N[C@H]1C=C[C@H](CC(=O)NCc2cc(F)cc(F)c2)O[C@H]1CO	9	7	2.2

3 entries already listed, arranged by the value under DUX4 inh control, rising.
compound	DUX4 inh	DUX4 inh difference	DUX4 inh control
C/C=C/c1ccc2c(c1)O[C@@H](CN(C)C(=O)C1CCCCC1)[C@@H](C)CN([C@H](C)CO)S2(=O)=O	-5	3	-7.4
COc1cccc(S(=O)(=O)N2C[C@@H](O)COC[C@@H]3O[C@H](CC(=O)N4CCCCC4)CC[C@H]32)c1	-5	1	-5.2
N#C[C@H]1[C@@H](c2ccc(/C=C/c3ccccc3)cc2)[C@@H](CO)N1C(=O)Cc1ccccn1	-2	-5	2.8
